BJeLR viability: MLPCN primary cell-based screen for lethality selective to Ras in HRASV12 cells; 300,000 tested, 0.17% active; inhibition, % (concentration not given with the values); BJeLR (HRASV12) viability, CellTiter-Glo ATP luminescence, 48 h; reference of the scale not given here;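 active = replicate mean above 50%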;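 note: 50 nL library stock added to about 25 µL; numbers are from one replicate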
Sa ugtP lethal: growth inhibition of ugtP-null S. aureus, primary screen, RN4220 ugtP deletion, OD600 | 16 h; some inactives read as strong as hits | growth inhibition, % (no concentration beside the values) | 330,000 tested, 0.54% active;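 active = z-score under -3 and OD600 up to 0.15 on both plates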;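 note: plate controls were untreated wells for no effect and antibiotic for full effect; wells of about 80 µL received 100 nL stock; the first replicate is given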
PrP UTR inh: inhibition of PrP 5' UTR reporter expression; inhibition, % (no concentration beside the values); AID 488862, 2010; cell-based PrP 5' UTR mRNA reporter, plate reader; 340,000 tested, 0.35% active;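 active = every replicate at 50% or more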;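 note: 0 = median of the neutral control wells; tested in H4 reporter cells; numbers are from one replicate; inactives centre near -14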
Sa RN4220 lethal: growth inhibition of S. aureus RN4220, primary screen, OD600. 16 h. inhibition, % (test concentration not listed). 330,000 tested, 0.33% active. AID 1259311, 2017;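 active = z-score of -3 or lower and OD600 up to 0.18 on both plates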;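 note: plate controls were untreated cells for no effect and reference antibiotic for full effect; stock transfer was 100 nL into about 80 µL; one replicate is shown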
Mtb hypoxia inh: PubChem AID 1159583 | M. tuberculosis hypoxia-regulated fluorescent reporter, fluorescence | fluorescence inhibition, % (test concentration not listed) | 300,000 tested, 0.1% active;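 active = 35 to 45% if threefold the growth effect, above 45% if 1.5-fold the growth effect; inactive = the rest, general growth blockers included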;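 note: wells of about 50 µL received 100 nL stock; 0% = vehicle wells and 100% = reference inhibitor wells; whole bacteria with a GFP reporter of the hypoxia response; strong numbers were not always called active; many hits fall short of the cut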
Autofluor counter: counter-screen for toxin protease inhibitors: compound fluorescence; fluorescence intensity (no concentration beside the values); compound autofluorescence counterscreen, microsphere flow cytometry; stronger effect = higher value; 360,000 tested, 3.1% active;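 active = at least 3 SD above the mean of all compounds, about 16000 in these data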;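 note: 100 nL of 1 mM stock went into each well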
Mtb hypoxia inh growth: second read-out of Mtb hypoxia inh, no call of its own (marks repeat the call); growth inhibition, %; measured here: M. tuberculosis growth (absorbance);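 0% = vehicle and 100% = reference antibiotic; read after six days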
* hit, by the source's call; nt = not tested or not shown.

[1] COc1cccc(CN2CCN(Cc3c(C)nn(C(C)C)c3C)CC2CCO)c1 (stereo not drawn)
[2] CC1CCN(S(=O)(=O)c2ccc(NC(=O)c3ccco3)cc2)CC1
[3] C/C(=N/OC(=O)c1c(F)cccc1F)c1nccs1
[4] CC(=O)c1ccc(NC(=O)C(C)Oc2ccc(N(C)S(=O)(=O)c3ccc(C)cc3)cc2)cc1 (stereo not drawn)
[5] CCN1C(=O)NC(c2ccco2)C(C(C)=O)=C1C (stereo not drawn)
[6] COc1ccc(OCc2cc(C(=O)NCC3(C)COC3)no2)c(Cl)c1
Screen / compound no.	1	2	3	4	5	6
BJeLR viability	2	2	3	nt	nt	3
Sa ugtP lethal	2	5	nt	-2	5	0
PrP UTR inh	-11	-8	-21	-17	nt	-11
Sa RN4220 lethal	2.0	2.9	nt	4.7	5.5	0.0
Mtb hypoxia inh	5	0	nt	4	7	10
Mtb hypoxia inh growth	12	10	nt	-3	12	4
Autofluor counter	2020	4090	9228	3674	nt	4415

[7] O=C(CS(=O)(=O)c1ccccc1Cl)N1CCOCC1
[8] O=C(c1ccco1)N1CCN(C(=NS(=O)(=O)c2cccs2)c2ccccc2Cl)CC1
[9] Cc1ccc(NC(=O)COc2ccc(/C=N/NC(=O)CSCc3ccccc3)cc2)cc1
[10] Cc1ccc(C2CC(C(F)F)n3ncc(C(=O)Nc4c(C)nn(Cc5c(F)cccc5Cl)c4C)c3N2)cc1 (stereo not drawn)
[11] CC(OC(=O)c1cccs1)C(=O)NCc1ccccc1 (stereo not drawn)
[12] CSc1ccccc1NC(=O)C1CC(c2ccccc2Cl)=NO1 (stereo not drawn)
Screen / compound no.	7	8	9	10	11	12
BJeLR viability	9	nt	-3	-3	-11	-16
Sa ugtP lethal	-3	-3	nt	-12	-2	9
PrP UTR inh	-18	nt	-2	6	-11	4
Sa RN4220 lethal	0.0	-11	nt	-2.9	3.5	9.4
Mtb hypoxia inh	1	15	nt	-10	9	6
Mtb hypoxia inh growth	-4	8	nt	2	5	8
Autofluor counter	5606	nt	22872*	4639	3774	3633

[13] Cc1ccc2[nH]c(=O)c3cc(C(=O)N(C)Cc4ccco4)sc3c2c1
[14] CCOC(=O)C1C2COc3ccccc3C2N2C(=O)c3cc(OC)ccc3NC(=O)[C@@]12C (stereo partly drawn)
[15] Cc1cc(C)nc(NN=Cc2c(CO)cnc(C)c2O)n1
[16] COc1ccc(NC(=O)c2ccccc2Cl)c(NC(=O)c2ccco2)c1
[17] Cc1ccc2c(c1)N(CC(=O)N1CCCCC1)C(=O)C(C)O2 (stereo not drawn)
[18] C=C1CCC[C@]2(C)C[C@H]3OC(=O)C(CNC(CC)CO)[C@H]3CC12 (stereo partly drawn)
Screen / compound no.	13	14	15	16	17	18
BJeLR viability	-5	nt	nt	-11	6	4
Sa ugtP lethal	-23	-6	-4	1	-1	17
PrP UTR inh	-18	nt	nt	-43	15	-5
Sa RN4220 lethal	4.6	5.3	1.2	0.9	3.6	-1.1
Mtb hypoxia inh	4	7	0	16	1	11
Mtb hypoxia inh growth	19	11	2	9	9	6
Autofluor counter	6049	nt	nt	5484	3514	3713

[19] COc1ccc(S(=O)(=O)N(C)C)cc1NC(=O)COC(=O)CC1CCCC1
[20] CC1=NN(c2ccccc2)C(=O)/C1=C\N(O)c1ccccc1
[21] O=C(NC1CC1)C1CCN(C2CCN(C(=O)Cc3ccc4c(c3)OCO4)CC2)CC1
[22] CCC(C)(C)NC(=O)CN(Cc1ccccc1Cl)C(=O)CCC(=O)Nc1cc(C)ccn1
[23] Cc1cc(NC(=O)c2noc3c2CCc2ccccc2-3)n(-c2ccccc2)n1
[24] Cc1ccccc1CSCc1ccc(C(=O)NCCCN2CCOCC2)o1
Screen / compound no.	19	20	21	22	23	24
BJeLR viability	-1	10	nt	3	-18	-15
Sa ugtP lethal	9	-1	10	7	-6	2
PrP UTR inh	-28	-16	-21	-10	-17	-13
Sa RN4220 lethal	0.1	0.0	8.3	4.8	-12	1.6
Mtb hypoxia inh	9	3	7	8	1	4
Mtb hypoxia inh growth	5	14	-5	2	10	0
Autofluor counter	4707	3638	4780	3216	4162	4388

[25] CN(C(=O)Cn1nnc(-c2cccnc2)n1)C1CCCCC1
[26] CCOC(=O)c1cnc(SSc2ncc(C(=O)OCC)c(N)n2)nc1N
[27] ON=Cc1ccc2cccc(OCc3ccccc3)c2n1
[28] O=C(Cn1cnc2c(OCc3ccccc3)ncnc21)NCCN1CCOCC1
[29] C=CCN1C(=O)C2(OCCCO2)c2cccc(C)c21
[30] COc1ccc(S(=O)(=O)N2CCC(C(=O)N3CCc4ccccc4C3)CC2)cc1OC
Screen / compound no.	25	26	27	28	29	30
BJeLR viability	6	-13	nt	nt	-13	4
Sa ugtP lethal	-11	1	8	0	11	0
PrP UTR inh	nt	7	nt	-33	-13	-18
Sa RN4220 lethal	1.0	7.0	7.5	2.1	4.1	2.3
Mtb hypoxia inh	-9	6	10	-13	23	-14
Mtb hypoxia inh growth	2	4	3	3	7	2
Autofluor counter	nt	4076	nt	3734	nt	18544*

[31] CCCCN=C1NC(=O)C(CC(=O)Nc2ccc(Cl)cc2)S1 (stereo not drawn)
[32] Cc1ccc(Cl)cc1N(CC(=O)NCc1ccccc1)S(C)(=O)=O
[33] COc1ccc([C@@H]2COc3c(ccc4c3C=CC(C)(C)O4)C2)c(OC)c1
[34] CC(C)CN1C(=O)c2ccc(NC(=O)C3CC3)cc2C1=O
[35] Cc1ccc(-c2nc(SC(C)C(=O)N3CCCC3)n[nH]2)cc1 (stereo not drawn)
[36] CN(CC1CCOCC1)C(=O)CC1C(=O)NCCN1C/C=C/c1ccccc1 (stereo not drawn)
Screen / compound no.	31	32	33	34	35	36
BJeLR viability	7	-1	-9	-1	-3	-4
Sa ugtP lethal	-7	-2	10	8	0	nt
PrP UTR inh	-5	-10	0	-6	-12	-16
Sa RN4220 lethal	3.5	1.3	1.8	5.3	1.5	nt
Mtb hypoxia inh	16	2	nt	8	0	nt
Mtb hypoxia inh growth	14	-3	nt	3	-7	nt
Autofluor counter	4493	4034	4330	6290	4302	4411

[37] Cc1ccc(C(=O)NCc2nnc(SCC(=O)Nc3sc4c(c3C#N)CCCC4)n2C)cc1
[38] CCC(CC)C(=O)OCC(=O)Nc1cccc([N+](=O)[O-])c1
[39] Cc1ccc(S(=O)(=O)Oc2ccccc2N2C(=O)C3C4CCC(C4)C3C2=O)cc1 (stereo not drawn)
[40] COc1ccc(C(C(=O)NCC2CCCO2)N(C(=O)CNC(=O)c2ccco2)c2ccccc2)cc1OC (stereo not drawn)
[41] Cc1ccc(OCC(=O)NCCO)cc1C
[42] O=C(Oc1cccc(-n2cnnn2)c1)c1ccco1
Screen / compound no.	37	38	39	40	41	42
BJeLR viability	-3	1	-10	-1	1	0
Sa ugtP lethal	-18	3	9	2	5	4
PrP UTR inh	-12	-18	-17	-19	-35	-23
Sa RN4220 lethal	-0.6	-1.2	6.6	0.8	8.2	6.8
Mtb hypoxia inh	3	13	5	8	4	nt
Mtb hypoxia inh growth	4	13	8	6	-1	nt
Autofluor counter	2424	4444	5624	3686	10670	2865

[43] CS(=O)(=O)N(CC(=O)NCc1ccccc1)Cc1ccc(Cl)cc1
[44] O=C(CCCc1ccccc1)NCc1ccccn1
[45] COc1ccc(/C=C2\C(=NO)C3CCN2CC3)cc1
[46] COc1ccc(C(=O)Nc2cccnc2)cc1OC
[47] CC(C)Cc1nc2sc3c(c2c(=O)n1N)CC(C)(C)OC3
[48] COc1ccc(C(=O)NNC(=O)CSc2nnc(C(C)C)n2C)cc1
Screen / compound no.	43	44	45	46	47	48
BJeLR viability	5	0	nt	-13	16	-2
Sa ugtP lethal	-2	4	0	-3	9	8
PrP UTR inh	0	-9	nt	6	-11	-11
Sa RN4220 lethal	1.5	0.8	19	0.1	7.4	3.1
Mtb hypoxia inh	0	-1	3	-5	-5	2
Mtb hypoxia inh growth	-4	9	0	6	8	0
Autofluor counter	15345	3981	nt	3289	4423	5797

Full records, looked up by structure.
COc1ccc(/C=C2\C(=NO)C3CCN2CC3)cc1 is entered as BJeLR viability = nt; Sa ugtP lethal = 0; PrP UTR inh = nt; Sa RN4220 lethal = 19; Mtb hypoxia inh = 3; Mtb hypoxia inh growth = 0; Autofluor counter = nt
O=C(CCCc1ccccc1)NCc1ccccn1 is entered as BJeLR viability = 0; Sa ugtP lethal = 4; PrP UTR inh = -9; Sa RN4220 lethal = 0.8; Mtb hypoxia inh = -1; Mtb hypoxia inh growth = 9; Autofluor counter = 3981

Remaining list, next part:
[49] CC(C)(Oc1ccc(Cl)cc1)C(=O)N(Cc1ccccc1)c1ccccn1
[50] O=C(NCc1ccccc1)C(=O)NCC(c1ccco1)N1CCOCC1 (stereo not drawn)
[51] CCN(CC)CCNC(=O)c1ccc(NC(=O)c2ccc3c(c2)CCC3)cc1
[52] Cc1cc(C(=O)NCc2ccc3c(c2)OCO3)c(C)o1
[53] COCCN1C(=O)CC(NNC(=O)c2ccc(S(=O)(=O)N3CCCC3)cc2)C1=O (stereo not drawn)
[54] O=C(O)c1cn[nH]c1-n1cnnn1
Screen / compound no.	49	50	51	52	53	54
BJeLR viability	2	-3	6	4	4	-7
Sa ugtP lethal	-2	4	9	0	7	5
PrP UTR inh	-5	-6	-4	-22	-5	-19
Sa RN4220 lethal	2.7	3.8	1.8	3.9	3.8	5.3
Mtb hypoxia inh	3	5	21	18	9	5
Mtb hypoxia inh growth	9	6	7	13	14	4
Autofluor counter	2462	2208	4019	nt	4414	14046

[55] COc1ccc(S(=O)(=O)NCC2CCCN(C(=O)c3cccs3)C2)cc1 (stereo not drawn)
[56] Cc1ccc(S(=O)(=O)N(C)C)cc1NC(=O)CN1C(=O)NC(Cc2ccccc2)C1=O (stereo not drawn)
[57] COc1ccccc1NC(=O)COc1ccc(C(=O)NCC2CCCO2)cc1OC (stereo not drawn)
[58] CC1=CCCC(C)(C)C1/C=C/C(C)=NNC(=O)c1ccncc1 (stereo not drawn)
[59] C/C(=N\NC(=O)c1ccccc1F)c1ccc2c(c1)Nc1ccccc1S2
[60] CN(Cc1ccccc1F)C(=O)CCCNC(=O)c1ccc(Cl)cc1
Screen / compound no.	55	56	57	58	59	60
BJeLR viability	-2	-6	nt	nt	13	-3
Sa ugtP lethal	2	1	6	-1	nt	5
PrP UTR inh	-15	-9	-15	nt	-1	-16
Sa RN4220 lethal	7.5	2.4	8.4	2.3	nt	2.8
Mtb hypoxia inh	10	7	-3	nt	nt	14
Mtb hypoxia inh growth	7	2	0	nt	nt	7
Autofluor counter	4505	5771	3933	nt	2012	3300

[61] COc1ccc(NC(=O)c2ccc(OC)cc2)cc1
[62] O=C1c2ccccc2CN1c1ccccc1
[63] O=C(c1cccs1)N(Cc1cccc(Cl)c1)C1CCS(=O)(=O)C1 (stereo not drawn)
[64] CC(C)OC(=O)CSc1nc(Cc2ccccc2)nc2ccccc12
[65] CCN(CCCNc1ncnc2nc[nH]c12)c1cccc(C)c1
[66] Cc1nnc(N/N=C/c2ccccc2O)n1N
[67] CCc1nn2c(=O)cc(N3CCN(c4cc(C)nc5ccccc45)CC3)nc2s1
Screen / compound no.	61	62	63	64	65	66	67
BJeLR viability	-1	6	-3	6	3	-8	0
Sa ugtP lethal	3	9	4	4	-22	nt	0
PrP UTR inh	-57	-58	-10	-19	0	-15	nt
Sa RN4220 lethal	-1.0	5.9	3.1	7.2	0.2	nt	6.8
Mtb hypoxia inh	3	2	-2	8	-8	nt	12
Mtb hypoxia inh growth	6	-3	6	4	0	nt	6
Autofluor counter	6343	4203	21176*	3355	6780	4450	nt
